Screens deposited in PubChem BioAssay by ICCB-Longwood Screening Facility, Harvard Medical School.
Ba CapD inh: Bacillus anthracis CapD inhibitors, primary screen, biochemical, fluorescence intensity | z-score (concentration not given with the values) | 140,000 compounds, 0.23% hits | purified CapD enzyme, fluorescence intensity read-out; active compounds read low; some hits fall short of the stated cut;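 active = z-score under -4 in either of two replicates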;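 also: stock transfer was 100 nL into about 40 µL; score is relative to mean and spread of the plate; one replicate is shown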
AID504770: growth inhibition of E. coli YBA685, primary screen, V. cholerae RctB inhibitors. E. coli YBA685 rctB-dependent plasmid, OD600 growth, 3 h; active compounds read low. z-score (test concentration not listed). 130,000 compounds, 0.27% hits. AID 504770, 2011;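 active = z-score under -2 on both plates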;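 also: wells of about 30 µL received 100 nL stock; score is relative to mean and SD of the test wells; the first replicate is given; strong numbers were not always called active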
Active calls of the source: *. Outcome played no part in choosing rows; overall some 0.37% were active at least once.

How did CS(=O)(=O)c1ccccc1-c1nnc(-c2ccc(Cl)c(Cl)c2)o1 do in these assays?
Ba CapD inh: 0.2

Results for CCOC(=O)C1=C(C)N=c2s/c(=C\c3ccc(OC(C)=O)cc3OC(C)=O)c(=O)n2C1c1cccs1 (stereo not drawn) ?
Ba CapD inh: -0.69

What do the screens show for `Cc1ccc(-c2nc(CSCC(=O)N3CCCC3)c(C)o2)cc1`?
Ba CapD inh: -2; AID504770: 0.7

Results for O=C(Nc1ccccc1)Nc1ccc(N2CCOCC2)cc1 ?
Ba CapD inh: 0.15; AID504770: -0.6

What do the screens show for `O=C(O)CC1(CC(=O)Nc2ccccc2-n2cccn2)CCCCC1`?
Ba CapD inh: -1.2; AID504770: 0.4

What do the screens show for `CCC(C)(C)c1cc2cc(NS(=O)(=O)c3ccc(NC(C)=O)cc3)ccc2[nH]1`?
Ba CapD inh: -0.22

How did COc1ccc(CCN(C)C(=O)C(CC(=O)O)Cc2cccc(C)c2)cc1OC (stereo not drawn) do in these assays?
Ba CapD inh: -0.035

What do the screens show for `COC(=O)c1cc(OC)c(OC)cc1NC(=O)Nc1ccccc1OC`?
AID504770: 0.15

Results for CC1CCN(CC(=O)Nc2ccccc2Br)CC1 ?
Ba CapD inh: -0.22; AID504770: -1.1

Results for COC(=O)C(O)(c1ccc(C)o1)C(F)(F)F (stereo not drawn) ?
AID504770: 1.4

Results for COc1ccccc1/C=C/C=N/n1c(-c2ccncc2)n[nH]c1=S ?
Ba CapD inh: -0.44; AID504770: 2

Results for Nc1ccc(CCC(=O)O)cc1 ?
Ba CapD inh: 0.02; AID504770: 0.15

How did COc1ccc(O)c(C(=O)c2cnc3c(c2)c(=O)[nH]c(=O)n3C)c1 do in these assays?
AID504770: -0.3

How did CCn1nc(NC(=O)c2ccco2)c2cc3ccc(C)cc3nc21 do in these assays?
Ba CapD inh: 4.6; AID504770: -0.3

How did CCc1c(C)sc(NC(=O)c2ccco2)c1C(=O)NCc1ccccc1 do in these assays?
Ba CapD inh: 2.8; AID504770: 0.5

Results for O=C(O)CCCN1C(=O)CSC1=S ?
Ba CapD inh: 0.49; AID504770: 0.9

How did FC(F)(F)c1ccc(-c2nnc(-c3cccs3)o2)cc1 do in these assays?
Ba CapD inh: 90; AID504770: 0.2

Results for CCn1cc(C(=O)NCCc2ccccc2)c(=O)c2cc(S(=O)(=O)N(C)C)ccc21 ?
Ba CapD inh: -2; AID504770: 0.65

What do the screens show for `N=C1/C(=C/c2ccco2)C(=O)N=C2SC(C3CCCCC3)=NN12`?
Ba CapD inh: 28; AID504770: 0.5

How did CC(C)N(C(=O)c1cc(C(=O)c2ccccc2)c[nH]1)C(C)C do in these assays?
Ba CapD inh: -0.36; AID504770: 1.6

Results for C/C(=N\N1C(C)CCCC1C)c1ccco1 (stereo not drawn) ?
AID504770: 0.1

What do the screens show for `O=C(Nc1ccc(N2C(=O)C3CC=CCC3C2=O)cc1)c1ccc(N2C(=O)C3CC=CCC3C2=O)cc1` (stereo not drawn)?
Ba CapD inh: -0.1

Results for Cc1ccc(S(=O)(=O)c2nnn3c2nc(NCC2CCCO2)c2ccccc23)cc1 (stereo not drawn) ?
Ba CapD inh: -0.05; AID504770: -2

How did O=[N+]([O-])c1cccc(/C=N/Nc2nc(C(F)(F)F)nc3ccccc23)c1 do in these assays?
Ba CapD inh: 0.33

How did CCCCN=C1SCC(c2ccc(Br)s2)=NN1C do in these assays?
AID504770: -0.45

What do the screens show for `CC1CCC2(CC1)NC(=O)N(Nc1ncnc3sccc13)C2=O` (stereo not drawn)?
AID504770: -2.5

What do the screens show for `N#CCSc1nc(N2CCOCC2)nc(N2CCOCC2)n1`?
Ba CapD inh: 0.39; AID504770: -0.3

How did COc1ccc(C(=O)NC(C)c2nc3ccccc3n2C)cc1OC (stereo not drawn) do in these assays?
Ba CapD inh: -0.58; AID504770: 1.5

How did CC(=O)Oc1ccc(C2Nc3ccc(C(C)=O)cc3C3C=CCC32)c(OC(C)=O)c1 (stereo not drawn) do in these assays?
Ba CapD inh: 1.3

How did CCn1c(Cn2nnc3ccccc3c2=O)nc2cc(S(=O)(=O)N(C)C)ccc21 do in these assays?
AID504770: -1.1

What do the screens show for `Nc1nc(Cc2cc3ccccc3[nH]2)nc(NC2CCCCC2)n1`?
Ba CapD inh: -0.18; AID504770: 0.15

Results for Cc1cccc(N(C)C(=O)C(C)Sc2nc3ncccc3o2)c1 (stereo not drawn) ?
Ba CapD inh: -0.52; AID504770: -0.35

How did Cc1cccc(N2C(=O)/C(=C/C=C\c3ccccc3)S(=O)(=O)C2c2cccc([N+](=O)[O-])c2)c1 (stereo not drawn) do in these assays?
Ba CapD inh: -0.49

What do the screens show for `O=C(CSC1=NC(=O)C(Cc2ccccc2)C(=O)N1)Nc1ccccc1` (stereo not drawn)?
Ba CapD inh: -0.09

How did CCOC(=O)c1ccc(CSc2nncn2N)o1 do in these assays?
Ba CapD inh: 0.065; AID504770: -0.5

What do the screens show for `C=C(C)COc1ccc2c3c(c(=O)oc2c1OCC(=C)C)CCC3`?
Ba CapD inh: 1.5; AID504770: -0.1

How did CCCS(=O)c1ccccc1 (stereo not drawn) do in these assays?
Ba CapD inh: -0.67; AID504770: -0.65

How did Cc1nc(C)c(C(=O)NC2CCSc3ccccc32)s1 (stereo not drawn) do in these assays?
AID504770: 0

What do the screens show for `COc1cccc(CNC(=O)CCSCc2ccccc2F)c1`?
AID504770: -0.5

How did CC1CC(C)CN(C(=O)c2ccc3c(c2)OCO3)C1 (stereo not drawn) do in these assays?
Ba CapD inh: 0.15; AID504770: -0.15

What do the screens show for `Cc1ccc(-c2nnc(SC(=O)OCc3ccccc3)o2)cc1`?
Ba CapD inh: -0.46; AID504770: -0.2

What do the screens show for `CN1CCC(N(C)c2nc(-c3ccc([N+](=O)[O-])cc3)nc3ccccc23)CC1`?
Ba CapD inh: -0.62

What do the screens show for `COc1cc(C2NC(=O)NC(C)=C2C(=O)NCc2ccccc2)ccc1OCC(N)=O` (stereo not drawn)?
Ba CapD inh: 0.22; AID504770: -0.5

Results for CC1CC(C)CN(S(=O)(=O)c2ccc(C(=O)Nc3nc(-c4cc5ccccc5oc4=O)cs3)cc2)C1 (stereo not drawn) ?
Ba CapD inh: 0.075

How did Cc1onc(-c2c(Cl)cccc2Cl)c1C(=O)NOC(=O)c1cccs1 do in these assays?
Ba CapD inh: -0.41

Taken from above for reference:
What do the screens show for `COc1cccc(CNC(=O)CCSCc2ccccc2F)c1`?
AID504770: -0.5

How did CC1CC(C)CN(C(=O)c2ccc3c(c2)OCO3)C1 (stereo not drawn) do in these assays?
Ba CapD inh: 0.15; AID504770: -0.15

What do the screens show for `Cc1ccc(-c2nnc(SC(=O)OCc3ccccc3)o2)cc1`?
Ba CapD inh: -0.46; AID504770: -0.2

What do the screens show for `CN1CCC(N(C)c2nc(-c3ccc([N+](=O)[O-])cc3)nc3ccccc23)CC1`?
Ba CapD inh: -0.62

What do the screens show for `COc1cc(C2NC(=O)NC(C)=C2C(=O)NCc2ccccc2)ccc1OCC(N)=O` (stereo not drawn)?
Ba CapD inh: 0.22; AID504770: -0.5

Results for CC1CC(C)CN(S(=O)(=O)c2ccc(C(=O)Nc3nc(-c4cc5ccccc5oc4=O)cs3)cc2)C1 (stereo not drawn) ?
Ba CapD inh: 0.075

How did Cc1onc(-c2c(Cl)cccc2Cl)c1C(=O)NOC(=O)c1cccs1 do in these assays?
Ba CapD inh: -0.41

The main list resumes, starting three compounds before the break.
What do the screens show for `COc1cc(C2NC(=O)NC(C)=C2C(=O)NCc2ccccc2)ccc1OCC(N)=O` (stereo not drawn)?
Ba CapD inh: 0.22; AID504770: -0.5

Results for CC1CC(C)CN(S(=O)(=O)c2ccc(C(=O)Nc3nc(-c4cc5ccccc5oc4=O)cs3)cc2)C1 (stereo not drawn) ?
Ba CapD inh: 0.075

How did Cc1onc(-c2c(Cl)cccc2Cl)c1C(=O)NOC(=O)c1cccs1 do in these assays?
Ba CapD inh: -0.41

How did CCOC(=O)c1cc2oc(C)cc2n1CC(=O)N(C)C1CCCCC1 do in these assays?
AID504770: -0.6

Results for COc1ccc(C2=NN(C(C)=O)C(c3cc4cc(C)ccc4nc3Cl)C2)cc1OC (stereo not drawn) ?
Ba CapD inh: 0.66

What do the screens show for `C=CCOc1ccc(/C=C2\SC(=Nc3ccccc3)NC2=O)cc1OC`?
Ba CapD inh: -0.055

How did C1CCC(N2CCC(N3CCCCC3)CC2)CC1 do in these assays?
AID504770: -0.45

How did c1cncc(CNC2CCCCC2)c1 do in these assays?
Ba CapD inh: 0.2; AID504770: -0.25

How did CN(Cc1nc2ccccc2n1C)C(=O)c1ccco1 do in these assays?
Ba CapD inh: -0.65; AID504770: -0.2

What do the screens show for `O=C(CSc1nc2ccccc2[nH]c1=O)NCc1ccco1`?
AID504770: -0.15

What do the screens show for `Cc1nn(CCC#N)c2nc(-c3cccnc3)cc(C(F)(F)F)c12`?
AID504770: -0.5

How did Ic1cccc(-c2nnc(-c3ccccc3)o2)c1 do in these assays?
Ba CapD inh: 0.065; AID504770: -0.8

How did CCn1c(C(=O)N2CCC(C(=O)N3CCC(Cc4ccccc4)CC3)CC2)cc2sccc21 do in these assays?
Ba CapD inh: 0.58; AID504770: 0.1

How did C=CCN1C(=O)NC(=O)/C(=C/c2ccc(OCc3ccccc3F)c(OCC)c2)C1=O do in these assays?
Ba CapD inh: 0.82

Results for CCOc1ccccc1NC(=O)c1ccc(Cl)cc1 ?
Ba CapD inh: -0.78; AID504770: 1.9

How did c1ccc(-c2csc(-c3ccc(-n4cncn4)nc3)n2)cc1 do in these assays?
Ba CapD inh: 5.4; AID504770: -0.55

What do the screens show for `Cc1ccc(-c2nnc(N3CCN(c4ccccn4)CC3)c3ccccc23)cc1`?
Ba CapD inh: -0.84; AID504770: 1.4

What do the screens show for `CC(C)(C)Sc1ccccc1CN1CCN(S(=O)(=O)c2ccc(F)cc2F)CC1`?
Ba CapD inh: 0.14

How did O=[N+]([O-])c1ccc2c(c1)S(=O)(=O)c1cc([N+](=O)[O-])ccc1-2 do in these assays?
Ba CapD inh: -0.9

How did COc1ccc(NS(=O)(=O)c2ccc(-c3cc(C(F)(F)F)no3)s2)cc1 do in these assays?
Ba CapD inh: -0.06; AID504770: -0.95

How did CCOC(=O)CC1=Nn2c(nnc2-c2ccc(OC)cc2)SC1 do in these assays?
AID504770: -0.6

What do the screens show for `COC(=O)C1=C(C)NC(=O)C1CC(=O)O` (stereo not drawn)?
Ba CapD inh: -0.34

Results for Cc1ccc(SCC(=O)Nc2ccc3c(c2)n(C)c(=O)n3C)cc1 ?
Ba CapD inh: -0.93; AID504770: 1.3

How did CC1SC2(C(=O)Nc3ccccc32)N(c2ccc(Cl)c(Cl)c2)C1=O (stereo not drawn) do in these assays?
Ba CapD inh: -1.6

Results for Cc1ccc(Nc2nnns2)cc1C ?
Ba CapD inh: -0.73; AID504770: -0.95

How did CCOC(=O)c1c(-c2ccccc2)csc1NC(=O)c1ccccc1C(=O)O do in these assays?
Ba CapD inh: 0.15; AID504770: -0.3

Results for CCn1c(-c2ccco2)nn(CN2CCN(S(=O)(=O)/C=C/c3ccccc3)CC2)c1=S ?
AID504770: 0.4

How did Cc1cccc(N/C=C(\C#N)c2nc(-c3ccc4c(c3)OCO4)cs2)c1 do in these assays?
Ba CapD inh: 0.035; AID504770: 1.4

Results for CC1CCCN(C(=O)COC(=O)/C=C/c2ccccc2Cl)C1 (stereo not drawn) ?
Ba CapD inh: -0.53; AID504770: 0.35

How did O=C(CSc1nnnn1-c1ccc(O)cc1)NCCSCc1ccco1 do in these assays?
Ba CapD inh: -0.19

How did O=c1c([N+](=O)[O-])c(NC2CCCCC2)c2ccccc2n1-c1ccccc1 do in these assays?
Ba CapD inh: 46

What do the screens show for `c1nc(N2CCCC2)c2c3c(sc2n1)CCCC3`?
AID504770: 0.65

How did COc1ccc(-c2nc3ccccc3c(=O)n2CCN2CCOCC2)cc1 do in these assays?
Ba CapD inh: -0.38; AID504770: 0

Results for COc1ccccc1/C=C1/SC(=O)N(CCC(=O)Nc2ccccc2)C1=O ?
Ba CapD inh: 0.29; AID504770: 0

Results for C=CCn1c(SCC(=O)Nc2ccc(C)cc2)nnc1C1CC1 ?
Ba CapD inh: -0.75; AID504770: 0.25

Results for CCOC(=O)c1sc(N)c(C(=O)OCC)c1CSc1nncs1 ?
AID504770: -0.45

What do the screens show for `Fc1ccc(-c2cc3ccccc3[nH]2)cc1F`?
Ba CapD inh: 75; AID504770: 1.3

Results for CCOc1ccc(-c2cnc3n2CCC3)cc1 ?
Ba CapD inh: 0.41; AID504770: -0.85

What do the screens show for `CC(=O)N1CCC(c2ccc(Cl)cc2)=N1`?
Ba CapD inh: 5; AID504770: -0.4

Results for O=C(O)CSCC(=O)Nc1cccc(O)c1 ?
AID504770: -0.05

How did CC(C)(C)c1[nH]nc2c1C(c1ccc(OC(=O)c3ccccc3Cl)cc1)C(C#N)=C(N)O2 (stereo not drawn) do in these assays?
Ba CapD inh: 10; AID504770: 2

What do the screens show for `O=C1NC(=S)NC(=O)C1=CN1CCc2ccccc2C1`?
AID504770: 0.05

Results for COC(=O)c1ccccc1NC(=O)COc1ccc(OC)cc1 ?
Ba CapD inh: -0.9; AID504770: -0.3

What do the screens show for `COC(=O)C1=C(N)N(c2ccc(S(N)(=O)=O)cc2)C2=C(C(=O)CC(C)(C)C2)C1c1ccc(OC)c(OC)c1` (stereo not drawn)?
Ba CapD inh: -0.21

Results for COc1ccc(-c2cc(NC(=O)N3CCc4ccccc4C3)c3ccccc3n2)cc1 ?
Ba CapD inh: 8.8; AID504770: 2.4

How did Cc1nc2c3cc(F)ccc3n(CCN3CCOCC3)c2s1 do in these assays?
AID504770: 2.6

Results for COc1ccccc1NC(=O)C1C(=O)CNC23CCCCC2C1c1ccccc1O3 (stereo not drawn) ?
Ba CapD inh: -0.12; AID504770: -0.2

Results for Cc1c(C(=O)NCc2ccccc2)oc2c1C(=O)CCC2 ?
Ba CapD inh: 1.4; AID504770: 0.15

Results for O=S(=O)(c1ccccc1)c1cnc2ccccc2c1N1CCCC1 ?
AID504770: 0.1
